# Shh pathway inh – Sonic Hedgehog pathway inhibition. Shh-LIGHT2 Gli-luciferase reporter, 30 h. inhibition, % (no concentration beside the values). 2.1% of 22,000 active. AID 2313;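 active = replicate mean of 65% or more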;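 note: pathway switched on by Shh-conditioned medium diluted 1 in 25 in low serum; 100 nL library stock added to about 40 µL; 0% = median of neutral wells and 100% = positive control level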
# MITF inh – blocks MITF activity; AID 2240; 0.28% of 37,000 active; TRPM1 promoter luciferase, luminescence, 24 h; inhibition, % (test concentration not listed);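 active = most replicates at 85% or more, or half of them and the mean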;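 note: human melanocyte line stably carrying TRPM1 promoter luciferase reporter; 0% = vehicle wells and 100% = a positive control; the first replicate is given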
# PD-1 reversal – reversal of PD-1 mediated T-cell inhibition | AID 2316 | primary human CD4 T cells, PD-L1 beads, CellTiter-Glo 96 h | 29,000 tested, under 10 active | activation, % (test concentration not listed);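 active = replicate mean of 50% or more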;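 note: 0% = median vehicle wells and 100% = positive control; 100 nL library stock added to about 50 µL; numbers are from one replicate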
# YB-1 expression – YB-1 expression inhibition; delta delta Cp (YB-1 minus CDIP) (concentration not given with the values); 0.37% of 30,000 active; U2OS, qRT-PCR YB-1 vs CDIP delta delta Cp, 16 h; active compounds read high; zero = DMSO, each unit about twofold; AID 434959;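 active = delta delta Cp rounded down to an integer at or above 3, about 3 SD of DMSO wells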;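 note: higher means less YB-1 transcript or more CDIP transcript relative to DMSO; stock transfer was 100 nL into about 100 µL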
# Active calls of the source: *; · = not tested or not shown.
SMILES,Shh pathway inh,MITF inh,PD-1 reversal,YB-1 expression
COc1ccc(NC(=O)Nc2cccc3c2O[C@@H](CN(C)CC2CCCCC2)[C@H](C)CN([C@@H](C)CO)C3=O)cc1,-9,5,1.4,-0.21
CCOc1ccc2c(c1)C(C)=CC(C)(C)N2,21,-20,·,0.31
C[C@@H]1CCCCO[C@H](CN(C)S(=O)(=O)c2cn(C)cn2)[C@@H](C)CN([C@H](C)CO)C(=O)c2cc(NS(=O)(=O)c3ccccc3)ccc2O1,·,3,·,0.27
Cc1noc(C)c1NC(=O)Nc1cccc2c1O[C@@H](CN(C)Cc1ccc(Cl)c(Cl)c1)[C@@H](C)CN([C@H](C)CO)C2=O,-23,-11,1.8,1
Cc1noc(C)c1NC(=O)Nc1ccc2c(c1)C(=O)N([C@@H](C)CO)C[C@H](C)[C@@H](CN(C)C(=O)Nc1ccccc1)O2,7,-12,0.4,0.28
CC(C)NC(=O)N(C)C[C@@H]1Oc2ccc(NC(=O)Cn3cnnn3)cc2C(=O)N([C@H](C)CO)C[C@H]1C,-23,-5,-0.2,0.44
C[C@@H]1CN([C@H](C)CO)C(=O)c2cccc(NS(C)(=O)=O)c2O[C@@H]1CN(C)S(=O)(=O)c1cccs1,·,3,0.1,-0.34
COCCNC(=O)CC1Sc2ccccc2NC1=O (stereo not drawn),·,-29,0.4,·
C[C@H]1CN([C@@H](C)CO)C(=O)c2cccc(NC(=O)c3ccc(-c4nccs4)cc3)c2O[C@H]1CN(C)S(C)(=O)=O,-23,-3,-0.8,-0.27
COc1cc(NC(=O)C(C)Oc2ccc(Cl)cc2Cl)c(C(=O)O)cc1OC (stereo not drawn),·,-4,4.6,·
CC(C)NC(=O)N(C)C[C@H]1OCCCC[C@@H](C)Oc2ccc(NC(=O)CCCN(C)C)cc2C(=O)N([C@H](C)CO)C[C@@H]1C,3,-25,·,-0.14
C[C@H]1CN([C@@H](C)CO)C(=O)Cc2cc(N(C)C)ccc2O[C@@H]1CN(C)Cc1ccc(Cl)c(Cl)c1,14,-17,·,0.043
C=C1C[C@@]23CCC4[C@](C)(C(=O)O)CCC[C@@]4(C)[C@]2(O)CCC1C3 (stereo partly drawn),-8,-9,-0.1,-0.81
CC(C)=CCc1cc2c(cc1O)O[C@H]1c3ccc(O)c(O)c3OC[C@@H]21,23,-11,-2.2,-0.22
CN(CCC#N)CC(=O)Nc1ccccc1[N+](=O)[O-],·,1,1.2,·
COc1ccc(S(=O)(=O)N(C)C[C@H]2Oc3c(NC(=O)Nc4ccc5c(c4)OCO5)cccc3C(=O)N([C@@H](C)CO)C[C@@H]2C)cc1,-23,-30,3.0,-0.09
COc1ccc(C(=O)NC(CC(C)C)C(=O)O)cc1OC (stereo not drawn),·,-4,0.2,·
Cc1noc(C)c1NC(=O)Nc1cccc2c1O[C@@H](CN(C)S(=O)(=O)c1ccc(Cl)cc1)[C@@H](C)CN([C@@H](C)CO)C2=O,30,-4,-0.3,-0.66
Cc1noc(C)c1S(=O)(=O)Nc1ccc2c(c1)CC(=O)N([C@@H](C)CO)C[C@H](C)[C@H](CN(C)C(=O)Nc1cccc3ccccc13)O2,·,-9,0.6,-0.29
C[C@@H]1CN([C@H](C)CO)C(=O)Cc2cc(NS(C)(=O)=O)ccc2O[C@@H]1CN(C)C(=O)Nc1cccc2ccccc12,29,-4,2.5,0.33
Cc1nnc(SCC(=O)Nc2ccc(N3CCOCC3)cc2)o1,·,-21,-1.4,·
CCOc1ccc(Cl)cc1S(=O)(=O)n1nnc2ccccc21,·,35,-2.2,·
C[C@H]1CN([C@@H](C)CO)C(=O)c2cccc(NC(=O)c3cnccn3)c2O[C@@H]1CN(C)S(=O)(=O)c1cccs1,-53,-40,-0.5,0.13
CC(C)NC(=O)Nc1ccc2c(c1)C(=O)N([C@H](C)CO)C[C@H](C)[C@@H](CN(C)Cc1ccc(Cl)c(Cl)c1)O2,·,-3,2.0,0.27
COc1ccc(C(=O)c2ccccc2O)c(O)c1,-13,-13,·,-0.013
CCCC(=O)Nc1ncnc2c1ncn2C1O[C@@H]2COP(=O)(O)O[C@H]2[C@H]1OC(=O)CCC (stereo partly drawn),-63,4,2.5,-0.45
O=C(CSc1nnc(-c2ccccc2)n1-c1ccc(F)cc1)c1ccccc1,·,-27,0.9,·
C[C@H](CO)N1C[C@H](C)[C@H](CN(C)Cc2ccc(C(F)(F)F)cc2)Oc2ccc(NC(=O)Nc3cccc4ccccc34)cc2CC1=O,·,23,·,-0.73
C[C@H](CO)N1C[C@H](C)[C@H](CN(C)Cc2ccccc2)Oc2ccc(NS(=O)(=O)c3cccs3)cc2CC1=O,-4,-15,·,-0.09
Cc1ccc(S(=O)(=O)N(C)C[C@@H]2Oc3ccc(NC(=O)Cn4cnnn4)cc3C(=O)N([C@@H](C)CO)C[C@@H]2C)cc1,·,-5,7.8,0.49
C[C@@H]1CN([C@H](C)CO)C(=O)c2cc(NC(=O)CCCN(C)C)ccc2O[C@H]1CN(C)CC1CCCCC1,·,-5,·,-0.13
O=C(Nc1cc(C(F)(F)F)cc(C(F)(F)F)c1)C(=S)NCCNc1cccc2ccccc12,23,-2,0.8,-0.12
Cc1noc(C)c1NC(=O)Nc1ccc2c(c1)C(=O)N([C@H](C)CO)C[C@H](C)[C@H](CN(C)Cc1ccc(C(=O)O)cc1)O2,-20,10,0.2,-0.015
CCC(CCCCC(=O)CCCCC1CCC(=O)O1)O[C@@H]1O[C@H](CO[C@@H]2O[C@H](CO)[C@@H](O)[C@H](O)[C@H]2O)[C@H](OC(=O)/C=C/c2ccc(O)cc2)[C@H](OC(C)=O)[C@H]1O (stereo partly drawn),-11,·,·,0.067
CC(C)NC(=O)N(C)C[C@@H]1Oc2ccc(NC(=O)CCCCCC(=O)Nc3ccccc3N)cc2CC(=O)N([C@H](C)CO)C[C@@H]1C,·,-11,2.2,-0.066
CS(=O)(=O)N(CC(=O)Nc1cccc(Br)c1)c1cc(Cl)c(Cl)cc1Cl,·,-7,0.7,·
C[C@@H]1CN([C@@H](C)CO)C(=O)Cc2cc(NS(=O)(=O)c3ccc(Cl)cc3)ccc2O[C@@H]1CN(C)C,24,-14,·,-0.077
Cc1cc(C(C)(C)C)c(O)c(C(C)(C)C)c1,-5,-14,·,0.055
COc1ccc(C)cc1N(CC(=O)Nc1ccccc1-c1ccccc1)S(C)(=O)=O,·,-3,1.9,·
CC(=O)OC1COC(OC2C(O)C(C)OC(OC3C(OC4CCC5(C)C(CCC6(C)C5CC=C5C7CC(C)(C)CCC7(C(=O)O)CCC56C)C4(C)CO)OCC(O)C3O)C2O)C(O)C1OC(C)=O (stereo not drawn),98*,39,-9.3,-0.036
CC(C)NC(=O)N(C)C[C@@H]1Oc2ccc(NC(=O)CCCN(C)C)cc2C(=O)N([C@@H](C)CO)C[C@H]1C,-41,-1,1.2,0.023
Cc1noc(C)c1NC(=O)N(C)C[C@H]1Oc2ccc(NC(=O)Nc3ccccc3)cc2C(=O)N([C@H](C)CO)C[C@H]1C,-6,-10,0.5,-0.2
CC(=O)c1c(C)oc2ccc(N(C(C)=O)S(=O)(=O)c3cccc4cccnc34)cc12,·,46,-3.7,·
COc1ccc(S(=O)(=O)N(C)C[C@H]2Oc3c(NC(=O)Nc4ccccc4)cccc3C(=O)N([C@H](C)CO)C[C@H]2C)cc1,-3,-5,-3.9,0.042
C[C@@H]1CN([C@@H](C)CO)C(=O)c2cccc(NS(=O)(=O)c3cccs3)c2O[C@H]1CN(C)Cc1ccc(-c2ccccc2)cc1,-20,23,4.0,-1.3
C[C@H]1CN([C@@H](C)CO)C(=O)c2cc(N(C)C)ccc2O[C@H]1CN(C)C,26,-1,·,0.12
C[C@H](CO)N1C[C@H](C)[C@@H](CN(C)C)Oc2c(NC(=O)c3ccncc3)cccc2C1=O,-34,-9,2.1,-0.41
COc1ccc([N+](=O)[O-])cc1NC(=O)COc1ccc(Cl)cc1Br,·,-12,1.3,·
Clc1ccc(Sc2cn[nH]c2-c2ccc3c(c2)OCCO3)cc1,79*,4,-2.5,-0.038
COC(=O)c1ccc(C(=O)OC)c(NC(=O)COc2ccc(C)cc2)c1,·,20,-5.4,·
# New compounds follow
SMILES,Shh pathway inh,MITF inh,PD-1 reversal,YB-1 expression
Cc1noc(C)c1NC(=O)N(C)C[C@H]1Oc2c(NS(=O)(=O)c3cn(C)cn3)cccc2C(=O)N([C@@H](C)CO)C[C@@H]1C,3,-1,·,0.045
Cn1nnnc1SCC(=O)Nc1ccc(F)cc1,·,-46,1.0,·
C[C@@H]1CN([C@H](C)CO)C(=O)c2cccc(NS(=O)(=O)c3cn(C)cn3)c2O[C@H]1CN(C)C(=O)Nc1ccccc1,-47,-3,·,0.0023
CC(C)NC(=O)Nc1ccc2c(c1)CC(=O)N([C@@H](C)CO)C[C@H](C)[C@@H](CN(C)S(=O)(=O)c1cccs1)O2,30,-7,-2.3,-0.34
Cc1ccc(S(=O)(=O)N(C)C[C@@H]2Oc3c(NC(=O)Nc4ccc5c(c4)OCO5)cccc3C(=O)N([C@H](C)CO)C[C@@H]2C)cc1,115*,-11,·,0.4
O=C(NCCn1cc(Cl)cn1)Nc1cccc(Cl)c1Cl,·,-13,-3.2,·
O=C(COc1ccccc1)Nc1cccc2nsnc12,·,-18,0.4,·
COc1ccc(NC(=O)N(C)C[C@H]2OCCCC[C@@H](C)Oc3ccc(NC(=O)Nc4c(C)noc4C)cc3C(=O)N([C@H](C)CO)C[C@@H]2C)cc1,-24,0,·,-16
C[C@@H]1CCCCO[C@@H](CN(C)C(=O)CCCN(C)C)[C@@H](C)CN([C@H](C)CO)C(=O)c2cc(NS(C)(=O)=O)ccc2O1,·,-2,-0.9,9.7*
COc1ccc(S(=O)(=O)Nc2cccc3c2O[C@H](CN(C)C)[C@H](C)CN([C@H](C)CO)C3=O)cc1,-15,-3,0.8,-0.51
C[C@@H]1CN([C@@H](C)CO)C(=O)c2cc(NC(=O)Cn3cnnn3)ccc2O[C@H]1CN(C)C,·,-2,1.1,-0.14
O=C(/C=C/c1ccc(O)cc1)O[C@@H]1CC(O)(C(=O)O)C[C@@H](OC(=O)/C=C/c2ccc(O)cc2)C1O (stereo partly drawn),-25,-1,-0.6,0.36
C[C@H]1CN([C@@H](C)CO)C(=O)c2cccc(NS(=O)(=O)c3ccc(F)cc3)c2O[C@@H]1CN(C)S(=O)(=O)c1ccc(F)cc1,3,-12,3.1,0.31
Cc1cccc(OCC(O)Cn2cnc3ccccc32)c1C (stereo not drawn),·,55,-1.3,·
C[C@@H]1CN([C@H](C)CO)C(=O)c2cccc(NS(=O)(=O)c3ccccc3)c2O[C@H]1CN(C)C(=O)Nc1ccc(F)cc1,14,-9,·,-0.08
COc1ccc(Nc2ncc(C#N)c(N)n2)c(OC)c1,-15,-75,0.4,0.45
C[C@H]1CN([C@@H](C)CO)C(=O)Cc2cc(NC(=O)Nc3cccc4ccccc34)ccc2O[C@@H]1CN(C)S(C)(=O)=O,-12,9,0.8,0.14
O=C(CCN1C(=O)c2ccccc2C1=O)Nc1ccc(NC(=O)c2ccco2)cc1,·,-41,-0.3,·
C[C@H](CO)N1C[C@H](C)[C@H](CN(C)C(=O)Nc2ccc3c(c2)OCO3)Oc2c(NC(=O)Nc3ccc4c(c3)OCO4)cccc2C1=O,-49,-3,·,-0.39
Cc1ccc(S(=O)(=O)N(C)C[C@@H]2Oc3ccc(NC(=O)Nc4ccc(F)cc4)cc3C(=O)N([C@H](C)CO)C[C@H]2C)cc1,-14,-38,-3.1,-0.6

# Record cards (already shown). Order of values: Shh pathway inh	MITF inh	PD-1 reversal	YB-1 expression
# Cc1ccc(S(=O)(=O)N(C)C[C@@H]2Oc3ccc(NC(=O)Nc4ccc(F)cc4)cc3C(=O)N([C@H](C)CO)C[C@H]2C)cc1 in the list: -14	-38	-3.1	-0.6
# COc1ccc(Nc2ncc(C#N)c(N)n2)c(OC)c1 in the list: -15	-75	0.4	0.45
# O=C(/C=C/c1ccc(O)cc1)O[C@@H]1CC(O)(C(=O)O)C[C@@H](OC(=O)/C=C/c2ccc(O)cc2)C1O (stereo partly drawn) in the list: -25	-1	-0.6	0.36
# C[C@@H]1CN([C@H](C)CO)C(=O)c2cccc(NS(=O)(=O)c3ccccc3)c2O[C@H]1CN(C)C(=O)Nc1ccc(F)cc1 in the list: 14	-9	·	-0.08
# C[C@H]1CN([C@@H](C)CO)C(=O)c2cccc(NS(=O)(=O)c3ccc(F)cc3)c2O[C@@H]1CN(C)S(=O)(=O)c1ccc(F)cc1 in the list: 3	-12	3.1	0.31

# As entered above:
# Shh pathway inh with CC(C)NC(=O)N(C)C[C@H]1OCCCC[C@@H](C)Oc2ccc(NC(=O)CCCN(C)C)cc2C(=O)N([C@H](C)CO)C[C@@H]1C is entered as 3
# YB-1 expression with C[C@@H]1CN([C@H](C)CO)C(=O)c2cccc(NS(=O)(=O)c3ccccc3)c2O[C@H]1CN(C)C(=O)Nc1ccc(F)cc1 is entered as -0.08
# MITF inh with Cc1noc(C)c1NC(=O)Nc1ccc2c(c1)C(=O)N([C@H](C)CO)C[C@H](C)[C@H](CN(C)Cc1ccc(C(=O)O)cc1)O2 is entered as 10
# MITF inh with O=C(CCN1C(=O)c2ccccc2C1=O)Nc1ccc(NC(=O)c2ccco2)cc1 is entered as -41

# Assay outcomes deposited in PubChem by Broad Institute.

# Only part of the results is shown; the hit share may differ from the screen's.
